Rango-impB inh = prevents formation of the Rango-importin beta complex. AID 540263. 0.031% of 340,000 active. Rango CFP/YFP FRET sensor + importin beta, 45 min. Q14974. Potency, µM (titrated, usually from 92.2 µM), without a hit: top-dose inhibition of complex formation; active = rising FRET ratio curve, often small or poorly fitted; inconclusive = mostly compound fluorescence or quenching in the first reads; inactive = flat curves in all reads;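 note: potency is the fitted concentration of half-maximal effect; 0% = DMSO wells and 100% = buffer wells lacking importin beta; nearly all actives have a fitted effect of over 15% in size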
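FRET biosensor (snurportin 1 IBB flanked by EYFP and cerulean), 50 nM, with compound 5 min, then 0.125 microM importin beta in PBS, 1 mM DTT, 0.02% Tween-20, 0.1% BSA. CFP/YFP ratio read after 45 min at room temperature; pre-read flags interference.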
miR-21 reporter = miR-21 reporter, rising signal; Potency, µM (doses to about 38.3 µM), for the others: top-dose reporter change, positive = more light; HeLa miR-21 FLuc reporter, luciferase, 48 h; 340,000 tested, under 10 active; active = well fitted rising curve with a large enough effect; inconclusive = small, poorly fitted or top-dose-only effect; inactive = no such curve, though single readings can be large or run the other way;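 note: % of control where 0% means no effect; miR-21 action dims this reporter so a rising signal means less miR-21 action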
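HeLa cells stably expressing CMV-driven firefly luciferase with a downstream miR-21 binding sequence, endogenously expressing miR-21, were treated with titrations (up to about 40uM final) for 48 hours at 37 degree Celsius. Luciferase luminescence was read after lysis.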
GLA inh pH 4.5 = inhibitors of human alpha-galactosidase A at pH 4.5; P06280; purified enzyme, 4-MU-alpha-Gal fluorescence, pH 4.5; activity change, negative = inhibition, % at 105 µM; 230,000 tested, under 10 active; AID 1467; inconclusive = small, poorly fitted or top-dose-only inhibition, or a rising curve; inactive = flat fitted curve, though single readings scatter; no compound was filed as active;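 note: 0% = full activity with enzyme and -100% = basal without enzyme; dose as in the result columns while the protocol names 77 µM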
Target sequence (P06280 whole entry, looked up): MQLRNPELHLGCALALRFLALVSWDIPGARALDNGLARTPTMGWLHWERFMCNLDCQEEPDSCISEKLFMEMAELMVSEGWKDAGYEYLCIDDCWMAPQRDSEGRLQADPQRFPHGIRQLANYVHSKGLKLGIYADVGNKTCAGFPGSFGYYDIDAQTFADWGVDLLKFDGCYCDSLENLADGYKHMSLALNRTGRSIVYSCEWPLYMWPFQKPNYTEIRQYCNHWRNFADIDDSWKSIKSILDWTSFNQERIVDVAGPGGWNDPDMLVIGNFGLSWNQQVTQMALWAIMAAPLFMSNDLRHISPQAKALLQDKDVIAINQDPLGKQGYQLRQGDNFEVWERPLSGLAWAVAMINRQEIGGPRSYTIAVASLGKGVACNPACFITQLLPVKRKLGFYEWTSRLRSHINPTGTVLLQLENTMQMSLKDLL
Rango release inh = inhibitors of RanGTP-induced Rango-importin beta complex dissociation; 0.071% of 340,000 active; Biochemical FRET Rango-importin beta, RanGTP-induced dissociation; Potency, µM (top dose mostly 46.1 µM), for inactives: at the top dose activity change, negative = inhibition; active means falling FRET ratio curve, often poorly fitted, with flat reads before Ran was added; inconclusive means other falling curves, or compound fluorescence or quenching; inactive means flat or rising ratio curve;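 note: potency is the fitted concentration of half-maximal effect; % of control where 0% means no effect; nearly all actives have a fitted effect of over 45% in size; -100% = wells without RanGTP and RCC1; the record marks most hits as doubtful in a second field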
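Two FRET readings bracket the reaction: one 5 min after compound meets Rango–importin beta, another 45 min after RanGTP-RCC1 (0.6 uM Ran, 0.2 uM RCC1, 2 mM GTP) is added. Only the second defines inhibition.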
* = called active by the depositor; ? = inconclusive; . = not tested or not shown; [ ] = dose if it differs, or a comment. The list is partial (hit frequency here may not be typical).

Fields: Rango-impB inh | miR-21 reporter | GLA inh pH 4.5 | Rango release inh
O=C1NC(c2ccccc2)Oc2ccccc21 (centres undefined)
  0.9% | -2% | . | 21%
O=C(NCC1CCCO1)C(=O)NCC(c1ccco1)N1CCN(c2ccccc2)CC1 (centres undefined)
  -5.4% | -12% | -8 | 5%
CC1O[C@@H](OC2C(O)C(O)C(CO)O[C@H]2OC2C[C@]3(C)C(CC(O)C4[C@@H]([C@]5(C)CC[C@@H](C(C)(C)O)O5)CC[C@]43C)[C@@]3(C)CCC(O)C(C)(C)C23)C(O)C(O)C1O (some centres undefined)
  -4.5% | . | . | 0%
Cc1[nH]n(-c2ccccc2)c(=O)c1C(c1ccc(O)c([N+](=O)[O-])c1)c1c(C)[nH]n(-c2ccccc2)c1=O
  1.3% | . | . | 1%
Cc1cc(C)c(C(=O)C(C)OC(=O)C2=COCCO2)cc1C (centres undefined)
  -0.3% | -4% | . | 9%
COc1ccc2[nH]c3c(=O)n(CCCCCC(=O)NCCC(C)C)c(=S)[nH]c3c2c1
  -5.0% | 0% | 4 | 1%
O=c1oc2ccccc2c(N2CCCCC2)c1[N+](=O)[O-]
  2.1% | 2% | -12 | 1%
CCOC(=O)C1(CC2CCCCO2)CCN(Cc2ccc(OC)cc2F)CC1 (centres undefined)
  -0.8% | -2% | -13 | -1%
O=C(C1CC1)N1CCN(c2nc3ccccc3s2)CC1
  -2.4% | -41% | -10 | 6%
COCCCNS(=O)(=O)c1ccc2c3c(cccc13)C(=O)S2
  -0.3% | -3% | -3 | -16%
Cc1ccc(C(=O)OCC(=O)NC(=O)Cc2ccccc2)c(O)c1
  6.6% | -3% | . | 5%
COc1cccc(N2CCN(C(=O)CNC(=O)c3sc4ccccc4c3Cl)CC2)c1
  2.3% | 1% | . | 15%
O=C(N(c1ccccc1)c1ccccc1)n1ccnc1
  -4.2% | -2% | -16 | 8%
CCOC(=O)C1=C(c2ccccc2)N=C2SCC(=O)N2C1c1ccc(OCC)c(OCC)c1 (centres undefined)
  1.0% | 0% | 7 | -18%
CC1=C(C(=O)N2CCOCC2)C(c2cc(C)cs2)NC(=O)N1 (centres undefined)
  -1.2% | -6% | -9 | -15%
Cc1cc(Br)cc(C)c1NC(=O)c1ccccc1[N+](=O)[O-]
  0.1% | 0% | 1 | 2%
C/C(=N/Nc1ccccc1C(=O)O)c1cccs1
  0.8% | -74% | . | 0%
Cc1ccc(C(=O)OCC(=O)c2cc(C)n(CC3CCCO3)c2C)cc1 (centres undefined)
  -1.8% | -58% | 2 | -8%
CCCOc1ccc(N2CC(C(=O)Nc3ccccc3OC)CC2=O)cc1 (centres undefined)
  -5.3% | -8% | 5 | -23%
Cc1cc(NC(=O)C(C)Oc2ccc(Cl)cc2Cl)n(-c2ccccc2)n1 (centres undefined)
  0.0% | 0% | -11 | 14%
O=C(OCc1c(F)cccc1Cl)c1cccc(S(=O)(=O)N2CCOCC2)c1
  3.1% | . | . | 7%
COc1ccc(C2Nc3ccccc3C(=O)N2O)cc1OC (centres undefined)
  1.0% | -33% | 12 | 0%
CC(C)OC(=O)[C@H]1[C@H](c2ccc(Cl)cc2)[C@@](C#N)(C(N)=O)[C@@H]2C=CC(C(N)=O)=CN21
  ? | -6% | -8 | -29%
COc1ccccc1/C=N/NC(=O)C(=O)Nc1ccccc1OC(F)(F)C(F)F
  -2.9% | -11% | 3 | -2%
CC(C)CCNC(=O)c1cc(S(=O)(=O)N2CCCCC2)ccc1N1CCOCC1
  ? | -4% | 6 | 1%
O=C(N/N=C/c1ccc[nH]1)c1cc(-c2cccs2)nc2ccccc12
  4.5% | 10% | -4 | 14%
CCCC(=O)Nc1cc(C(=O)O)ccc1S(=O)(=O)c1ccc(C)cc1
  9.3% | -7% | -6 | 36%
COc1cc(NC(=O)c2cccs2)cc(OC)c1
  0.0% | -32% | -19 | 3%
Cn1cccc1C(=O)c1cccc([N+](=O)[O-])c1
  -2.5% | -7% | -15 | -1%
COc1ccc(NC(=O)CSc2nc(NS(=O)(=O)c3ccc(C)cc3)cc(=O)[nH]2)cc1
  -1.4% | -8% | -1 | -9%

Other compounds
Fields: Rango-impB inh | miR-21 reporter | GLA inh pH 4.5 | Rango release inh
O=C(Nc1cccc(F)c1)c1cccnc1N1CCOCC1
  -0.2% | -6% | -18 | -7%
O=C(O)c1ccccc1-c1ccccc1C(=O)Nc1ccccc1Br
  -0.3% | -4% | . | 5%
COC(=O)CSc1nnc(-c2ccco2)o1
  -0.3% | 0% | -11 | 0%
CC(C)OCC(O)CS(=O)Cc1ccccc1 (centres undefined)
  -1.3% | 0% | 14 | 1%
O=C(Cc1ccccc1)N1CCN(C(=O)c2ccco2)CC1
  -3.6% | -11% | 4 | 13%
Cc1cnc(C(=O)Nc2cccc(S(=O)(=O)N(C)C)c2)cn1
  -3.1% | -7% | 5 | -19%
COCCCN(C(=O)CSCc1c(C)noc1C)c1c(N)n(Cc2ccccc2)c(=O)[nH]c1=O
  ? | . | . | -13%
OCCSc1nc(-c2ccccc2)nc2ccc(F)cc12
  -4.8% | -10% | -4 | 7%
O=C(CSc1nnc2ccc(-c3ccc(F)cc3)nn12)NCC1CCCO1 (centres undefined)
  0.1% | . | . | 0%
C=CCn1c(-c2ccc(Cl)cc2)cnc1SC(C)C(=O)NC(N)=O (centres undefined)
  -2.9% | 0% | -2 | -9%
COc1ccc(CC(=O)N2CCN(S(=O)(=O)c3cccs3)CC2)cc1OC
  3.6% | -5% | -4 | 8%
Cn1c(-c2ccc(F)cc2)cc2onc(-c3c(F)cccc3Cl)c2c1=O
  -0.5% | . | . | -1%
CCC(C)(C)C1CCC2(CC1)NC(=O)N(CC(=O)Nc1nc(-c3ccc(C)cc3)cs1)C2=O (centres undefined)
  2.8% | -5% | 2 | -17%
O=S(=O)(c1cnc[nH]1)N1CCN(c2ccc(Cl)cc2)CC1
  -2.2% | 0% | 3 | -11%
Oc1ccccc1CC=NC1CCCCC1
  -0.9% | . | . | 1%
N#C/C(=N\Nc1ccc(S(=O)(=O)N2CCc3ccccc32)cc1)C(N)=S
  4.4% | 14% | -6 | -12%
CCCS(=O)(=O)N1CCCC(C(=O)NCC2CCCO2)C1 (centres undefined)
  1.6% | -3% | -1 | 0%
CCc1cc(C(=O)NCCN(C)C)cs1
  3.9% | -11% | -9 | 7%
COc1ccc(-c2cc(C(=O)Nc3ccc(OC)c(OC)c3)no2)cc1
  -2.0% | 2% | . | -15%
CCOC(=O)c1ccc(NC(=O)CSc2nnc(CNc3ccc(OC)cc3)n2C)cc1
  -0.6% | 1% | -6 | 1%
CCNC(=O)C(=O)NCC(c1cccs1)S(=O)(=O)c1ccc(C)cc1 (centres undefined)
  2.7% | 4% | . | 0%
CC[C@]12c3[nH]c4ccc(Cl)cc4c3CCN1C(=O)[C@@H](CC(=O)NCCCn1ccnc1)C[C@@H]2C(=O)N1CCN(C(=O)c2ccco2)CC1
  0.4% | . | . | 13%
CCOc1ccc2[nH]c3c(N4CCN(c5ccccn5)CC4)ncnc3c2c1
  1.5% | 10% | -4 | 1%
COc1ccc(C)cc1S(=O)(=O)Nc1ccccc1
  1.6% | 1% | 1 | 3%
Cc1onc(-c2c(Cl)cccc2Cl)c1C(=O)N1CCCc2ccccc21
  -3.1% | 25% | 0 | 7%
CN(c1ccc(OCC(=O)OCC(=O)NCc2ccco2)cc1)S(=O)(=O)c1ccc2ccccc2c1
  3.1% | -1% | -7 | -11%
Cc1ccc(C2(C(F)(F)F)NC(=O)N3CCN=C3S2)cc1 (centres undefined)
  -1.5% | -1% | 2 | -7%
CCCCCCC(=O)Nc1c(O)c2ccccc2[nH]c1=O
  -0.4% | -1% | -5 | 1%
COc1ccc(NC(=O)NNS(=O)(=O)c2ccc(Br)cc2)cc1
  0.1% | -3% | . | -3%
COCCCNC(=O)c1ccc(CS(=O)(=O)c2cccc(C(F)(F)F)c2)o1
  -3.4% | -1% | . | -15%

The results go on.
Fields: Rango-impB inh | miR-21 reporter | GLA inh pH 4.5 | Rango release inh
OCCn1ccc(-c2ccccc2OCc2ccc(F)cc2)n1
  0.0% | -4% | . | 19%
Cc1sc2ncnc(SCC(=O)c3ccc(Cl)s3)c2c1C
  . | -2% | 1 | .
O=C(NCC1CCCO1)/C(=C\c1cccc([N+](=O)[O-])c1)NC(=O)c1ccccc1 (centres undefined)
  -4.7% | -2% | 9[21.1 µM] | 0%
COc1ccc(C2=Nn3c(nnc3-c3ccccc3OC)SC2)cc1OCC1CC1
  -1.7% | . | . | 1%
CN(CC(=O)N1CCc2[nH]c3ccc(F)cc3c2C1)CC1OCCO1
  ? | -3% | 14 | -2%
COc1cc(/C=C2\S/C(=N/S(=O)(=O)Cc3ccccc3)NC2=O)c([N+](=O)[O-])cc1OC
  ? | 3% | -6 | -1%
CC(C(=O)NCC1CCCCC1)N1CCN(S(=O)(=O)c2ccccc2F)CC1 (centres undefined)
  6.6% | 0% | 2 | 16%
CCN(CC(=O)Nc1ccc(NC(C)=O)cc1)C(=O)CSC(=S)N1CCCC1
  -1.9% | . | . | 13%
Cc1ccc(NC(=O)Cc2nnc(SCC(=O)Nc3nncs3)n2C)c(C)c1
  1.2% | 6% | . | 5%
O=C(CN1C(=O)CSc2ccc(S(=O)(=O)N3CCCCC3)cc21)NCc1ccccc1Cl
  0.4% | 5% | . | -10%
CCOC(=O)CNc1nnc(SCC(=O)OCC)[nH]c1=O
  -0.6% | -4% | -2 | -8%
COc1ccc(NC(=O)CN2CCN(c3ccccn3)CC2)cc1Cl
  5.4% | 1% | . | 7%
CC1(C(=O)N/N=C/c2ccc3c(c2)OCO3)CC1(Br)Br (centres undefined)
  0.6% | -12% | . | -10%
O=C(Cn1nc(C(=O)O)c2ccccc2c1=O)Nc1ccc(F)cc1
  -1.5% | 2% | . | -4%
N=c1ccn(CC(=O)c2ccc(-c3ccccc3)cc2)cc1
  1.1% | 22% | -8 | -7%
COC(=O)c1c(C(=O)OC)c(-c2ccc(Cl)c(Cl)c2)n2c1CCC2
  1.3% | -1% | -8 | -4%
Cc1cc(C)c2cc(C)c(SCC(=O)NCc3ccco3)nc2c1
  -2.3% | 17% | -7 | 8%
C=CCn1nnnc1SCC(=O)Nc1cccc(OC)c1
  -1.1% | -18% | 7 | 6%
COc1ccccc1OCCNC(=O)Nc1ccc(Br)cc1
  -3.0% | -14% | -13 | -3%
COc1ccc(S(=O)(=O)N2CCC(C(=O)OCC(=O)c3ccccc3)CC2)cc1[N+](=O)[O-]
  ? | 0% | -3 | 9%
CC(=O)OC(C(=O)Nc1nccs1)c1ccccc1 (centres undefined)
  -0.9% | 0% | . | 0%
Cc1cc(SCc2c(F)cccc2Cl)nc(=O)[nH]1
  -0.7% | -9% | . | -4%
NC(=O)c1ccc(SCC(=O)OCC(=O)NCc2ccco2)c([N+](=O)[O-])c1
  -4.4% | . | . | -11%
CC(C)C(=O)NNC(=O)CSc1nnc(-c2ccccc2)c(-c2ccccc2)n1
  0.3% | -2% | . | 1%
CCN(Cc1ccccc1)C(c1cc2cc(C)ccc2[nH]c1=O)c1nnnn1CCOC (centres undefined)
  -8.1% | 1% | 5 | 1%
O=C(Cn1c(O)c(N=NC(=O)c2ccncc2)c2ccccc21)Nc1ccccc1
  -1.3% | -14% | -11 | -11%
NC1=NC2(CCCC2)n2c(nc3ccccc32)N1
  -0.3% | -3% | -3 | 13%
O=C(O)C1CCN(Cc2cnn(-c3ccccc3)c2-n2cccc2)CC1
  ? | . | . | -12%
Cc1ccccc1N1CC(c2nc3ccccc3[nH]2)CC1=O (centres undefined)
  -2.3% | 1% | -5 | 4%

Whole records as entered above. Screens in order: Rango-impB inh	miR-21 reporter	GLA inh pH 4.5	Rango release inh
`COc1cc(/C=C2\S/C(=N/S(=O)(=O)Cc3ccccc3)NC2=O)c([N+](=O)[O-])cc1OC` is listed as ?	3%	-6	-1%
`O=C(CN1C(=O)CSc2ccc(S(=O)(=O)N3CCCCC3)cc21)NCc1ccccc1Cl` is listed as 0.4%	5%	.	-10%
`Cc1sc2ncnc(SCC(=O)c3ccc(Cl)s3)c2c1C` is listed as .	-2%	1	.
`CC(C)C(=O)NNC(=O)CSc1nnc(-c2ccccc2)c(-c2ccccc2)n1` is listed as 0.3%	-2%	.	1%
`O=C(Cn1nc(C(=O)O)c2ccccc2c1=O)Nc1ccc(F)cc1` is listed as -1.5%	2%	.	-4%

Source: PubChem BioAssay
